# Screening results as filed in PubChem BioAssay.
# PV pol inh – poliovirus RNA polymerase inhibition; P03300; poliovirus polymerase elongation, fluorescence polarization; active compounds read low; % elongation, % (compound at 16.7 µg/mL); hit rate 0.66% among 150,000; AID 588519; in the data active = % elongation below about 90%; also: some results filed as inactive read as strong as hits
# Target sequence (P03300 1749-2209 limits assumed): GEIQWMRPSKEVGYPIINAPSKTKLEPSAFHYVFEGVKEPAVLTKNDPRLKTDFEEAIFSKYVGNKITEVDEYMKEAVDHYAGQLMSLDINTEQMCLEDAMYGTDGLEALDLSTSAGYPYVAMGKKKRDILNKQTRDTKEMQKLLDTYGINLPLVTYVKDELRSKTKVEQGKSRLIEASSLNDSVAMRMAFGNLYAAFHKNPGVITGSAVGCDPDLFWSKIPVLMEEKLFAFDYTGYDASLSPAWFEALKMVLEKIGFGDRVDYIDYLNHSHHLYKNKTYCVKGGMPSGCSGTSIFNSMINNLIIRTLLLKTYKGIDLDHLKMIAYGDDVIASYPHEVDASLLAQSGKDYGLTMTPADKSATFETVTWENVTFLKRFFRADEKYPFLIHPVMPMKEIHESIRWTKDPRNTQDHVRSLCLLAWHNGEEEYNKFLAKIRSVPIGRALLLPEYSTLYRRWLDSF
# MbtI inh – MbtI salicylate synthase inhibition | hit rate 0.89% among 100,000 | purified MbtI enzyme, fluorescence intensity read-out | AID 493033 | P9WFX0 | inhibition, %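 (about 17 µg/mL by stock and volumes)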;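 active = above 50% in both replicates, above 80% if mildly self-fluorescent; inactive = the rest, strongly fluorescent compounds included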;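 also: 0% = mean of negative and 100% = mean of positive controls; one replicate is shown; some compounds called inactive have numbers as strong as hits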
# Target sequence (P9WFX0 whole entry, looked up): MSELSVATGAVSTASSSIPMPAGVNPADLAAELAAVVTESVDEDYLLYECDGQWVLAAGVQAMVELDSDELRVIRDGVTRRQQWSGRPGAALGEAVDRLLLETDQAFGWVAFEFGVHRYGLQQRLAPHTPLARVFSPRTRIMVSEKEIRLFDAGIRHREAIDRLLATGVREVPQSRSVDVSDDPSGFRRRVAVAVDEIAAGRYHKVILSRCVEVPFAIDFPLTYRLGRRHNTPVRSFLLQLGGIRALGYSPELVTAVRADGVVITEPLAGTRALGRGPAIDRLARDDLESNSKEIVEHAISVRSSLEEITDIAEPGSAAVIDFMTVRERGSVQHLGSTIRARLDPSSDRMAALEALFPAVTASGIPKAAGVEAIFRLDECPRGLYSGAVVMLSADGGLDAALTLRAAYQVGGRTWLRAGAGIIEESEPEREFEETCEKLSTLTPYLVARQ
# Mtb MenB inh – Mtb MenB enzyme inhibition | P9WNP5 | AID 540299 | hit rate 0.43% among 100,000 | MenB enzyme assay, absorbance read-out; some hits fall short of the stated cut | inhibition, %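 (about 12 µg/mL by stock and volumes)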;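 active = mean of two replicates above 30%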;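 also: 0% = no compound and 100% = wells with inactive enzyme; the first replicate is given; strong numbers were not always called active; inactives centre near -10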
# PV pol inh intensity – further read-out of PV pol inh, marked with its call; % elongation; measured here: total intensity read-out; formula for this scale not given here;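 total fluorescence in place of polarization; lower means less elongation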
# * marks the source's active call; other numbers are inactive results; / = no result given; & = joins results of further samples.
SMILES,PV pol inh,PV pol inh intensity,MbtI inh,Mtb MenB inh
O=C(COC(=O)CCc1ccc(S(=O)(=O)N2CCOCC2)cc1)Nc1ccccc1OC(F)F,102,107,-16,-20
O=C(CN1C2=NCCN2c2ccccc21)c1ccc(O)cc1,102,100,0,1
O=C(O)/C=C/c1ccc(C(F)(F)F)cc1,103,106,0,/
Oc1ccc(C=Nc2ccc(Nc3ccccc3)cc2)c(O)c1,84,169,25,-324
Cc1cc(C)cc(N2C(N)=NC(N)=NC2c2cccc(Cl)c2)c1 (stereo unspecified),102,95,-3,-25
O=C(NCc1cccs1)c1cc(Br)cs1,100,102,-8,-13
COc1ccc(-c2noc(N(C)CC(=O)N3CCN(c4cccc(Cl)c4)CC3)n2)cc1,103,103,-7,-10
CCc1ccc(OCC(=O)c2ccc(O)c(CN(C)C)c2O)cc1,100,99,5,/
CCc1ccc(NC(=O)Cn2c(=O)cc(C)c3c(C)nn(C)c32)cc1,104,105,-1,-26
O=C(c1ccccc1)c1cc2ccc(O)cc2oc1=O,98,96,33,/

# Quoted from the listing:
# For MbtI inh, O=C(COC(=O)CCc1ccc(S(=O)(=O)N2CCOCC2)cc1)Nc1ccccc1OC(F)F shows -16
# For PV pol inh, CCc1ccc(NC(=O)Cn2c(=O)cc(C)c3c(C)nn(C)c32)cc1 shows 104
# For PV pol inh, CCc1ccc(OCC(=O)c2ccc(O)c(CN(C)C)c2O)cc1 shows 100

# The results go on.
SMILES,PV pol inh,PV pol inh intensity,MbtI inh,Mtb MenB inh
C[N+]12CCC(CC1)C(OC(=O)C(O)(c1ccccc1)c1ccccc1)C2 (stereo unspecified),100&101,100&103,-3&-17,-3&4
Clc1nc2c(Cl)cccc2s1,103,108,59*,-25
Cc1ccc(CNCc2ccccc2)s1,107&106,110&100,-8,-72
COC(=O)c1ccc(-c2ccc(C(=O)N3CCCN(C)CC3)cc2)cc1,103,107,-7,/
c1ccc(-c2nnc(SCC3COc4ccccc4O3)nc2-c2ccccc2)cc1 (stereo unspecified),101,100,11,-44
COc1ccc(CCNS(=O)(=O)c2ccc3c(c2)CCN3C(=O)C2CCC2)cc1OC,101,101,3,-7
COC(=O)c1cc(NS(=O)(=O)c2ccccc2)cc(C(=O)OC)c1,104,111,/,5
CC(=O)NN=C(C1CC1)C1CC1,104,111,-4,7
O=C(CSc1nnnn1-c1ccccc1F)N1c2ccccc2Sc2ccc(Cl)cc21,103,105,/,-30
CN(C)/C=N/c1nnc(N2CCN(c3cccc(Cl)c3)CC2)s1,105,111,/,-11
CN(C)C1(CNC(=O)Nc2ccccc2)CCCCC1,101,111,-7,-7
O=C(CN1CCC(c2nc3ccccc3[nH]2)CC1)N1CCCCC1,103,109,-8,-17
N=C1C(NO)=NC(c2ccccc2)N1O (stereo unspecified),103,98,-1,-45
CC1CCN(c2nc(Cc3ccc(Cl)cc3Cl)nc3c2nnn3C)CC1,105,106,-3,-16
O=C(Cc1ccccc1)Nc1c(C(=O)N2CCCC2)oc2ccccc12,99,100,-78,-20
O=C(COC(=O)Cc1ccsc1)Nc1ccccc1C(F)(F)F,101,99,-3,/
Cc1ccc(N2CC(C(=O)O)CC2=O)cc1C (stereo unspecified),102,97,0,-23
CSc1nc(-n2nc(C)cc2C)c2c3c(sc2n1)COC(C)(C)C3,99,103,-16,-17
CC(C)CCNC(=O)c1cc2c(s1)CSC2,97,94,72,-42
COC(=O)CSc1nc2cc(OC)c(OC)cc2cc1C,101,102,12,23
Oc1ccccc1CNc1cnc2ccccc2c1,103,109,/,-11
CCN(CC)C(=S)N=P(c1ccccc1)(N1CCOCC1)N1CCOCC1,104,110,4,-14
CC(C(=O)N1CCCC1)N1CCN(S(=O)(=O)c2cccs2)CC1 (stereo unspecified),106,111,-4,-12
C#CCSc1nnc2[nH]c(=O)cc(CCC)n12,101,95,34,-16
O=C(Nc1ccc(S(=O)(=O)NC23CC4CC(CC(C4)C2)C3)cc1)C1CC1,95,124,-1,4
Cc1ccc(C(=O)NCC(=O)O)cc1C,99,104,-5,/
CCCCNC(=O)C12CCC(C)(C(=O)C1)C2(C)C (stereo unspecified),100,107,13,11
CC(=O)Nc1ccccc1N1CCN(S(C)(=O)=O)CC1,104,100,-8,-27
COc1cc(OC)c2c(C)cc(=O)oc2c1,103,102,89,27
CC(C)N1C(=O)C(C#N)C2(CCNCC2)C(C#N)=C1S (stereo unspecified),109,129,/,-67

# Reformatted: results already given.
SMILES: N=C1C(NO)=NC(c2ccccc2)N1O (stereo unspecified)
  PV pol inh: 103	PV pol inh intensity: 98	MbtI inh: -1	Mtb MenB inh: -45

SMILES: CN(C)/C=N/c1nnc(N2CCN(c3cccc(Cl)c3)CC2)s1
  PV pol inh: 105	PV pol inh intensity: 111	MbtI inh: /	Mtb MenB inh: -11

SMILES: CC(=O)NN=C(C1CC1)C1CC1
  PV pol inh: 104	PV pol inh intensity: 111	MbtI inh: -4	Mtb MenB inh: 7

# (further entries)
SMILES,PV pol inh,PV pol inh intensity,MbtI inh,Mtb MenB inh
O=C(COC(=O)C1CC2C=CC1C2)NCc1ccco1 (stereo unspecified),103,103,-4,/
Cn1nnnc1SCC(=O)N1CC2(C)CC1CC(C)(C)C2 (stereo unspecified),95,99,-5,-9
O=C(O)CCC1COc2ccccc2O1 (stereo unspecified),101,104,-8,-1
COC(=O)Cc1nc(-c2cccs2)no1,104,102,18,14
O=C(Nc1ccc2nonc2c1)N1CCOCC1,111,99,2,-22
O=C(CSc1c(-c2ccccc2)c2cc(Cl)ccc2[nH]c1=O)NCc1ccco1,103,107,31,-24
CCC(c1ccc(F)cc1)n1cc(C(=O)NCCc2ccco2)nn1 (stereo unspecified),104,104,-2,-28
COc1ccc(/C=C(/C#N)c2ccc(Cl)cc2)cc1OC,103,104,/,-31
O=C(NCCO)C1=C(N2CCOCC2)/C(=C\c2ccccc2)CC1,102,100,-152,-15
CCn1cc(C(=O)O)c(=O)c2cc(F)c(N3CCN(C(=S)Nc4ccc5c(c4)OCO5)CC3)cc21,99,104,-11,-8
COc1ccc(-c2nnn(CCC(=O)O)n2)cc1,103,99,-3,-12
O=C(CC12CC3CC(CC(C3)C1)C2)Nc1ccc2[nH]c(=O)[nH]c2c1,101,104,-2,-21
CSc1ccccc1NC(=O)CN1CCc2ccccc21,88*,58*,4,-9
CN(Cc1nc2ccccc2n1C)C(=O)c1ccc(Cl)cc1,97,103,-11,2
CCN(C(=O)c1cccs1)c1ccccc1,100,103,-15,-13
CC1(C)C/C(=N/O)c2ccoc2C1,101,101,-8,-34
Cc1cc(C(=O)N/N=C/C(C)(C)C)nn1C,106,104,12,-12
Cc1csc(NC(=O)CSc2ccc(Cl)cc2)c1C(N)=O,105,114,-1,-4
NC(=O)CSc1ccccc1NC(=O)c1cc(-c2cccs2)nn1-c1ccccc1,102,105,53,-68
C=CCOC(=O)C1=C(C)OC(N)=C(C(=O)OC)C12C(=O)Nc1ccccc12 (stereo unspecified),100,104,-2,11
CCN1C(=O)CC(n2c(C)nc3ccccc32)C1=O (stereo unspecified),102,106,-1,4
CC(C)CNC(=O)/C=C/c1ccc2c(c1)OCO2,100,91,64,9
Cn1c(=O)n(C)c(=O)n(C)c1=O,102,104,0,-12
O=C(Cn1cc(CO)c2ccccc21)Nc1ccc(F)cc1,100,103,-7,14
O=C1CC(N(C(=O)c2ccco2)c2cccc(Cl)c2)C(=O)N1c1cccc(Cl)c1 (stereo unspecified),100,101,0,-32
O=C(Cn1cnc2ccccc21)OCC(=O)c1ccc(Cl)s1,112,120,-4,-17
CC1(C)CC(NC(=S)NC2CC2)CC(C)(C)N1,99,101,0,4
CCS(=O)(=O)N1CCN(Cc2ccccc2)CC1,103,104,-3,-5
CC1(C)CC(NC2=NCCCCC2)CC(C)(C)N1,106,109,-33,-1
N#CCn1c(CSc2nncn2-c2ccccc2)nc2ccccc2c1=O,103,109,-5,-15
Cc1ccc(NC(=O)CSCC(=O)O)cc1,103,101,-10,26
Cc1ccccc1-c1nc(CS(=O)(=O)CC(=O)NCc2ccc3c(c2)OCO3)c(C)o1,101,102,4,-7
O=S(=O)(c1ccccc1)c1cccc(S(=O)(=O)N2CCOCC2)c1,102,97,-5,-30
COc1ccccc1C(=O)NCc1nnc(SCC(=O)Nc2cccc(Cl)c2)n1C,100,101,2,-58
CN(C)/C=N/c1nnc(SCC(=O)c2ccc(F)cc2)s1,100,112,5,20
Cc1ccc2c(c1)N(C(=O)CSc1nc3ncccc3[nH]1)CCO2,101,100,2,-25
N#Cc1nc(Cl)ccc1Cl,100,105,3,11
Cc1noc(C)c1NC(N)=O,101,96,-6,-27
O=C1CC2(CCN(C(=O)/C=C\c3ccccc3)CC2)Oc2ccccc21,106,102,32,-17
C=C(C)n1c(=O)n(Cc2ccccc2C)c2ccccc21,104,103,1,-17

# Reprinted from the part before: 5 entries; new compounds follow.
SMILES,PV pol inh,PV pol inh intensity,MbtI inh,Mtb MenB inh
Cc1ccc2c(c1)N(C(=O)CSc1nc3ncccc3[nH]1)CCO2,101,100,2,-25
N#Cc1nc(Cl)ccc1Cl,100,105,3,11
Cc1noc(C)c1NC(N)=O,101,96,-6,-27
O=C1CC2(CCN(C(=O)/C=C\c3ccccc3)CC2)Oc2ccccc21,106,102,32,-17
C=C(C)n1c(=O)n(Cc2ccccc2C)c2ccccc21,104,103,1,-17
CCNS(=O)(=O)c1ccc(CCC(=O)N2CCCCC2)cc1,100,102,-11,6
CCN(CC)S(=O)(=O)c1c[nH]c(C(=O)OC)c1,103,103,1,-4
N#Cc1ccsc1NC(=O)C1C2C=CC(C2)C1C(=O)O (stereo unspecified),104,101,4,-1
CCOc1ccc(S(=O)(=O)N2CCN(C(=O)c3sccc3C)CC2)cc1,103,108,-23,1
O=C(NCCSc1nnnn1-c1ccccc1)c1ccccc1,103,104,-5,-13
COc1cccc(C2C3=C(CC(C)(C)CC3=O)NC3=C2C(=O)CC(C)(C)C3)c1,107,111,/,-48
CN(C)C(CNc1ncnc2sccc12)c1cccs1 (stereo unspecified),106,113,-8,-6
CC(O)CNc1nc2ccccc2nc1-c1ccccc1 (stereo unspecified),103,104,-98,-59
C=CCNC(=O)c1cccc(Oc2ccccc2)c1,103,102,-7,8
O=C(CN1C(=O)c2ccccc2C1=O)ON=C1CCCCC1,100,101,/,8
N#Cc1cc2c(ccc3ccccc32)oc1=N,100,103,-346,-23
COC(=O)c1ccc(-n2c(C)ccc2C)cc1,101,103,4,/
C=CCN(CC=C)C(=S)Nc1ccc2nc(C)c(C)nc2c1,100,101,-4,-10
Cc1ccc(N(C(=O)c2ccco2)C(C(=O)NC2CCCC2)c2ccc(N(C)C)cc2)c(C)c1 (stereo unspecified),103,101,6,32
CC1(C(=O)O)COC(c2ccc(Cl)cc2)OC1 (stereo unspecified),104,105,3,-42
Cc1cc2oc(=O)cc(CN(C)c3ccccc3)c2cc1C,103,109,7,-18
CCc1nnc(NC(=O)c2c(O)c3ccccc3n(C)c2=O)s1,99,102,-3,24
O=S(=O)(Nc1ccc(Oc2ncnc3cc(Cl)ccc23)nc1)c1ccc(-c2ccccn2)s1,100,99,6,16
O=C(Nc1ccc2nc[nH]c2c1)C1CCCCC1,107,99,-5,-35
CN(C)C(=O)Oc1nnc(SCC(=O)c2ccc3c(c2)OCCO3)n1C1CC1,103,97,-1,-25
CC(C(=O)c1ccccc1)S(=O)(=O)c1ccccc1 (stereo unspecified),98,101,2,-2
COc1ccccc1N1CCN(CC(O)COc2cccc3ccccc23)CC1 (stereo unspecified),98,101,2,-23
O=C(O)c1cc2cc(Cl)ccc2[nH]c1=O,102,103,16,4
CCNS(=O)(=O)c1ccc(NC(=O)c2nc3nc(C)cc(C(F)F)n3n2)cc1,100,103,-4,-14
CCc1cccc(NC(=O)CCNS(=O)(=O)c2ccc3c(c2)oc(=O)n3C)c1,101,102,-2,-6
COCCN=C1Sc2nc3c(C)cccc3cc2CN1Cc1ccco1,99,102,66,-52
CC1CCC2(CC1)NC(=O)N(Cc1ccccc1)C2=O (stereo unspecified),102,105,-3,-45

# Ordered by SMILES length (ascending): five of the compounds above
SMILES,PV pol inh,PV pol inh intensity,MbtI inh,Mtb MenB inh
O=C(O)c1cc2cc(Cl)ccc2[nH]c1=O,102,103,16,4
CC(C(=O)c1ccccc1)S(=O)(=O)c1ccccc1 (stereo unspecified),98,101,2,-2
COc1ccccc1N1CCN(CC(O)COc2cccc3ccccc23)CC1 (stereo unspecified),98,101,2,-23
CN(C)C(=O)Oc1nnc(SCC(=O)c2ccc3c(c2)OCCO3)n1C1CC1,103,97,-1,-25
CCc1cccc(NC(=O)CCNS(=O)(=O)c2ccc3c(c2)oc(=O)n3C)c1,101,102,-2,-6
